INS promoter inh – inhibitors of insulin promoter-driven GFP, primary screen, imaging, TRM-6 cells (human fetal islet line), eGFP reporter, cell count. reporter expression induced with tamoxifen. AID 1273, 2008. 0.9% of 130,000 active. inhibition, % at 2 µM;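 active = inhibition above the mean plus 3 SD, with well images judged a real hit on visual review, cut at about 60% in these data, passing the limit was not always enough; inconclusive = inhibition over the cutoff but images rejected on review; inactive = inhibition not above the cutoff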
PKD1 kinase inh – inhibitors of human PKD1 kinase, biochemical, fluorescence polarization; Serine/threonine-protein kinase D1 (Homo sapiens), Q15139; PKD1 kinase fluorescence polarization assay; inhibition, %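 (about 10 µM by stock and volumes)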; 0.056% of 200,000 active; AID 797, 2007;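 active = inhibition of 50% or more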;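 note: controls were vehicle for no effect and a reference inhibitor for full effect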
Target sequence (Q15139 whole entry, looked up): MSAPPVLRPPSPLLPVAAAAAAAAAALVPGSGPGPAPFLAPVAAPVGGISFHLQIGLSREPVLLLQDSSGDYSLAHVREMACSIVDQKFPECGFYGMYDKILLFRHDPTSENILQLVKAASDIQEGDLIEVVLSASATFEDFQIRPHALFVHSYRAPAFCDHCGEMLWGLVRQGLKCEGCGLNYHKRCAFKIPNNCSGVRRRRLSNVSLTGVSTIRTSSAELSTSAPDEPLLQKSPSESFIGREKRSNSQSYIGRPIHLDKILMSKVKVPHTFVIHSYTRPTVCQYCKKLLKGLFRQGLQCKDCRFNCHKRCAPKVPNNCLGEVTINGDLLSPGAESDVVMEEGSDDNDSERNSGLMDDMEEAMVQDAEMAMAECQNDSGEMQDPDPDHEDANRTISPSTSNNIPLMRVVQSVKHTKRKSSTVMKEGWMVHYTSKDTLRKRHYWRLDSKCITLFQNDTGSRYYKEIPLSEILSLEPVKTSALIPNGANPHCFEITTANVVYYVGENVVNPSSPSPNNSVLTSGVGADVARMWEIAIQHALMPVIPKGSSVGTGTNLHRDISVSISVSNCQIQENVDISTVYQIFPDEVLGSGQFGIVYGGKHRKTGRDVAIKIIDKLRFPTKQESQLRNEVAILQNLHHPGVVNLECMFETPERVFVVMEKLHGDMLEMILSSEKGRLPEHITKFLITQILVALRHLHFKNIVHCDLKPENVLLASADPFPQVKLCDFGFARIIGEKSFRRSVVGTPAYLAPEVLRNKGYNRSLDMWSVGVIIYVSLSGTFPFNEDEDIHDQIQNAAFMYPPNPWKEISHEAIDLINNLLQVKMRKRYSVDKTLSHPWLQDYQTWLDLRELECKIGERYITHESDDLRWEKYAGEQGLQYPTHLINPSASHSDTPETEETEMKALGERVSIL
RGS16-Gao HTS – modulators of RGS16 binding to Galphao, primary screen, biochemical, human proteins, multiplexed bead flow cytometry | bead-based flow cytometry RGS16-Galphao binding, fluorescence; actives lie on both sides | binding response (% of control), % at 10 µM | 0.38% of 220,000 active | AID 1441, 2008;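 active = below 25% or above 175%, edge rows of some plates excepted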;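 note: Galphao activated by GDP with aluminum fluoride before binding; 100% = wells without compound and 0% = beads without RGS; some results beyond the cut were filed as inactive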
HSV replic up – enhancers of HSV replication in host cells, fold increase, host cell viability; AID 1956, 2009; maximum fold increase; 0.005% of 220,000 active; HSV replication augmentation in cells;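 active = peak rise of 1.5-fold or more in the series; inconclusive = self-fluorescent or not available for retest; tested in PC3 cells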;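 note: first round at 10 µM; read as green reporter fluorescence; hits show the peak of a series up to 25 µM; 1 = signal of infected wells without compound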
GALR2 agonist – GALR2 receptor agonists, primary screen, cell-based; GALR2-expressing cells, agonist activation read-out; activation, %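 (tested at 5 µM)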; 0.48% of 140,000 active; AID 803, 2007;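 active = above mean plus 3 SD of all compounds, about 5% in these data, not always enough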;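 note: 0% = vehicle buffer wells and 100% = reference agonist at full effect; tested in CHO reporter cells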
INS promoter inh cell count – further read-out of INS promoter inh, marked with its call; normalized cell count, %; measured here: cell count, toxicity; reference of the scale not given here;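 cells exposed to compound for 48 h; stained nuclei by imaging scaled within each plate; lower means fewer cells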
HSV replic up primary fold – further read-out of HSV replic up, marked with its call; fold increase; compound at 10 µM; measured here: primary screen fold increase 10 uM; tested in PC3 cells;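 GFP signal in the first replicate; 1 = infected wells without compound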
Active calls of the source: *; i = inactive; ? = inconclusive; · = no result given.

SMILES | INS promoter inh | INS promoter inh cell count | PKD1 kinase inh | RGS16-Gao HTS | HSV replic up | HSV replic up primary fold | GALR2 agonist
O=[N+]([O-])c1ccccc1/C=C/C=N/n1c(-c2cc(-c3ccccc3)n[nH]2)n[nH]c1=S | · | · | · | 95 | i | 0.94 | ·
Cc1cc2cc(CNC(=S)NC3CCCCC3)ccc2n1C | 45 | 149 | -3 | 112 | i | 1 | ·
Cc1ccccc1-c1noc(CCC(=O)NCC2CCCO2)n1 (stereo not given) | -93 | 146 | -6 | 46 | i | 0.78 | -0.5
O=C(Cc1cccs1)Nc1cccc(-c2nc3ccccc3[nH]2)c1 | · | · | -2 | 97 | i | 0.86 | -0.1
CC(C)c1ccc2[nH]c(O)c(N=NC(=O)c3ccc(CSc4nncn4C)cc3)c2c1 | · | · | -2 | 101 | i | 1.3 | 5.1*
CCOC(=O)c1sc2ccc(S(=O)(=O)N3CCOCC3)cc2c1N | · | · | -3 | 52 | i | 0.85 | -1.1
CC(C)N1CCC(N2CCN(CC#Cc3ccccc3)CC2CCO)CC1 (stereo not given) | · | · | 7 | 97 | i | 0.96 | ·
COc1ccccc1CCNC(=O)C(=O)NCC1OCCN1S(=O)(=O)c1ccc(Br)cc1 (stereo not given) | 3 | 109 | -3 | 102 | i | 0.91 | -1.6
Nc1nc(SCc2ccc3c(c2)OCCO3)n[nH]1 | 33 | 60 | 2 | 52 | i | 1 | -2.5
CC(C)Oc1cc(NC(=O)CS(=O)CC(=O)Nc2cccc(C(F)(F)F)c2)c(Cl)cc1Cl (stereo not given) | -42 | 66 | -15 | 112 | i | 0.87 | 0.1
COc1cc2cc(C)c(SCC(=O)N3CCOCC3)nc2cc1OC | 0 | 132 | -5 | 102 | i | 0.89 | -1.0
CCCN1C(=O)C2(/C(=C(\O)c3ccc4c(c3)OCCO4)C(=O)C(=O)N2CCCOC)c2ccccc21 (stereo not given) | · | · | -4 | 94 | i | 0.84 | -0.4
O=C(CSc1ncnc2ccccc12)NCCc1ccccc1 | 67 | 138 | -6 | 89 | i | 1 | ·
O=C(NCc1ccccc1)c1cccc(NS(=O)(=O)c2cccc3cccnc23)c1 | -58 | 107 | 2 | 68 | i | 0.99 | -1.6
Cc1cccc(N2CC(C(=O)O)CC2=O)c1C (stereo not given) | · | · | · | 100 | i | 0.85 | ·

Full records, looked up by structure:
CC(C)c1ccc2[nH]c(O)c(N=NC(=O)c3ccc(CSc4nncn4C)cc3)c2c1 reads INS promoter inh: ·; INS promoter inh cell count: ·; PKD1 kinase inh: -2; RGS16-Gao HTS: 101; HSV replic up: i; HSV replic up primary fold: 1.3; GALR2 agonist: 5.1*
CCCN1C(=O)C2(/C(=C(\O)c3ccc4c(c3)OCCO4)C(=O)C(=O)N2CCCOC)c2ccccc21 (stereo not given) reads INS promoter inh: ·; INS promoter inh cell count: ·; PKD1 kinase inh: -4; RGS16-Gao HTS: 94; HSV replic up: i; HSV replic up primary fold: 0.84; GALR2 agonist: -0.4

More compounds
SMILES | INS promoter inh | INS promoter inh cell count | PKD1 kinase inh | RGS16-Gao HTS | HSV replic up | HSV replic up primary fold | GALR2 agonist
CCCCNC(=O)c1cc(-c2ccc(OC)cc2)on1 | 4 | 109 | -7 | 100 | i | 0.82 | -1.5
CCn1c(C(C)NC(=O)c2cccc(C)c2)n[nH]c1=S (stereo not given) | · | · | -3 | 107 | i | 0.95 | ·
O=C(c1ccco1)N1CCN(C(c2ccccc2)c2nnnn2Cc2cccs2)CC1 (stereo not given) | · | · | 6 | 103 | i | 0.96 | -1.4
O=C(CCl)N(Cc1ccccc1)c1ccccc1 | i | 1 | -7 | 100 | i | 0.93 | ·
Cc1ccc(S(=O)(=O)N2CCOCC2)cc1C(=O)NCc1cn2ccsc2n1 | -35 | 126 | 2 | 103 | i | 1 | -1.8
CC(C)CC(NC(=O)C(CO)NC(=O)C1CCC(=O)N1)C(N)=O (stereo not given) | -18 | 75 | -6 | 113 | i | 0.99 | ·
COC(=O)CC1C(=O)NCCN1C(=S)Nc1ccccc1Cl (stereo not given) | 32 | 122 | -7 | 100 | i | 1 | ·
O=C(Nc1cccnc1)/C(N=Nc1ccc(Cl)c(C(F)(F)F)c1)=C(\O)c1ccccc1 | -12 | 43 | -13 | 109 | i | 1 | -0.5
Cc1ccc2nc(C(F)OC(F)(F)F)[nH]c2c1 (stereo not given) | -42 | 120 | -9 | 84 | i | 0.97 | -1.7
CN(C)c1nc(C(=O)O)nc(N2CCOCC2)n1 | · | · | · | 102 | i | 1 | ·
CC(NCc1ccco1)C(=O)N1CCc2ccccc2C1 (stereo not given) | 6 | 157 | -10 | 117 | i | 1 | -4.9
O=C(CCc1nnc(C2CCCCC2)o1)N1CCN(Cc2ccccc2)CC1 | · | · | -6 | 96 | ? | · | ·
CCOc1ccccc1NC(=O)CN(c1nccs1)S(=O)(=O)c1ccc(N)cc1 | · | · | -11 | 105 | i | 0.98 | 0.5
CC(C)C[C@H](NC(=O)OC(C)(C)C)c1n[nH]c(=S)n1N | -7 | 108 | -11 | 97 | i | 0.9 | -0.1
CC(=O)NCCOC(=O)Nc1cccnc1 | · | · | -2 | 108 | i | 0.78 | 0.4
COc1c(F)c(F)c(C(=O)Nc2ccc3oc(-c4ccncc4)nc3c2)c(F)c1F | 56 | 127 | -9 | 84 | i | 0.88 | -2.1
COc1cc(NC(=S)NCc2cccs2)cc(OC)c1 | -36 | 88 | -3 | 112 | i | 1 | -0.2
CCOC(=O)c1sc2nccc(N(C)C)c2c1N=CNOCc1c(F)cccc1Cl | -39 | 91 | 3 | 110 | i | 0.93 | 0.1
CCC(C)/C=C/C1=CC2=C(Cl)C(=O)C3(C)OC(=O)C(C(=O)C(C)C(C)O)C3C2=CO1 (stereo not given) | · | · | 17 | 94 | i | 1.2 | ·
CCn1c(SCC(=O)NCc2ccco2)nc2c(c1=O)SC(C)C2 (stereo not given) | -138 | 82 | 1 | 98 | i | 0.96 | -1.9
Cc1ccc(C(=O)Oc2ccc(C(=O)COC(=O)C3CC(=O)N(Cc4ccco4)C3)cc2)cc1 (stereo not given) | 64 | 158 | -9 | 93 | i | 1 | -0.4
O=C(Nc1nc(-c2ccccc2)cs1)c1cccnc1 | -41 | 121 | -1 | 103 | i | 0.92 | -0.6
O=C(NC(=S)NCC1CCCO1)c1ccccc1[N+](=O)[O-] (stereo not given) | · | · | 4 | 97 | i | 0.94 | ·
Cc1ccc(N(CC(=O)NCCSc2ccccn2)S(C)(=O)=O)cc1 | -100 | 77 | -8 | 48 | i | 1.1 | ·
COc1c2c(cc3oc(=O)ccc13)OC(C)(C)C=C2 | · | · | · | 111 | i | 0.93 | ·
O=C1CC(Sc2nnc(-c3ccccc3O)o2)C(=O)N1c1ccccc1 (stereo not given) | · | · | 5 | 101 | · | · | -1.6
Cc1cc(N)n(-c2ccc(S(=O)(=O)N3CCOCC3)cc2[N+](=O)[O-])n1 | · | · | · | 102 | i | 1.1 | ·
CC(C)COP(=O)(OCC(C)C)C(O)c1ccc2c(c1)OCO2 (stereo not given) | · | · | · | 104 | i | 0.85 | ·
COc1ccccc1OCCOCCOc1ccccc1Cl | 6 | 72 | 0 | 119 | i | 1.1 | -1.0
O=C(Nc1ccc(Cl)cn1)c1cccc(S(=O)(=O)N2CCOCC2)c1 | -25 | 90 | -5 | 89 | i | 0.75 | -1.9

Another view of some results above.
> CCOC(=O)c1sc2nccc(N(C)C)c2c1N=CNOCc1c(F)cccc1Cl
  INS promoter inh: -39 | INS promoter inh cell count: 91 | PKD1 kinase inh: 3 | RGS16-Gao HTS: 110 | HSV replic up: i | HSV replic up primary fold: 0.93 | GALR2 agonist: 0.1
> CCC(C)/C=C/C1=CC2=C(Cl)C(=O)C3(C)OC(=O)C(C(=O)C(C)C(C)O)C3C2=CO1 (stereo not given)
  INS promoter inh: · | INS promoter inh cell count: · | PKD1 kinase inh: 17 | RGS16-Gao HTS: 94 | HSV replic up: i | HSV replic up primary fold: 1.2 | GALR2 agonist: ·

The list goes on.
SMILES | INS promoter inh | INS promoter inh cell count | PKD1 kinase inh | RGS16-Gao HTS | HSV replic up | HSV replic up primary fold | GALR2 agonist
CCc1ccc(CCC(=O)Nc2ccccc2C(=O)O)o1 | -12 | 75 | -19 | 98 | i | 1.1 | -1.6
CC(Oc1ccc(Cl)cc1Cl)C(=O)NC1=NN(c2ccccc2)C(=O)C1 (stereo not given) | · | · | -6 | 100 | i | 0.99 | -3.4
O=C(CSCc1ccc([N+](=O)[O-])cc1)NN=C1CCCCCC1 | -246 | 60 | -1 | 83 | i | 1.1 | -0.8
Cc1cc(C)n(C2CC(=O)N(c3cccc(Cl)c3)C2=O)n1 (stereo not given) | -14 | 81 | 7 | 103 | i | 0.92 | ·
Cc1ccc2c(COC(=O)CNC(=O)c3ccccc3)cc(=O)oc2c1 | 12 | 64 | -1 | 111 | i | 0.99 | -1.5
CCSC1=N/C(=C\c2cccc(F)c2)C(=O)S1 | 10 | 82 | 0 | 108 | i | 1.1 | -0.8
Cc1[nH]c2ccc(F)cc2c1CCNC(=O)C1CCCCC1C(=O)OCC(F)(F)F (stereo not given) | 6 | 104 | 18 | 96 | i | 1 | -2.3
COC(=O)N/N=C/c1cc(C)n(-c2ccc(F)cc2)c1C | -8 | 134 | 3 | 99 | i | 1 | ·
Cc1ccc(C2C(C(=O)c3cccs3)=C(O)C(=O)N2CCN2CCOCC2)o1 (stereo not given) | 25 | 97 | 1 | 104 | i | 0.88 | 0.6
Cc1ccc(C(=O)Nc2nnc(C)s2)o1 | 22 | 111 | 7 | 99 | i | 1.1 | -1.3
COc1ccc(C(=O)NCc2nnc(SCC(=O)Nc3ccccc3OC)n2C)cc1 | · | · | -5 | 98 | i | 0.92 | ·
Cc1ccc(-c2nnn(CCC(=O)N3CCCCC3C)n2)cc1 (stereo not given) | 71* | 71* | -9 | 84 | i | 1 | 2.9
O=c1c2sc3nc(N4CCOCC4)c4c(c3c2ncn1-c1ccccc1)CCCC4 | · | · | 9 | 98 | i | 0.91 | ·
CCCC(=O)C1=C(O)C(C(=O)OC)C(C)(C)CC1=NC(C)C (stereo not given) | -480 | 40 | -8 | 113 | i | 0.96 | -1.2
C=CCN(CC=C)C(=O)c1ccc(OC2CCN(Cc3ccccn3)CC2)cc1 | · | · | 1 | 16 | i | 0.97 | ·
CC(=O)N/N=C/c1cc(C(C)C)cc(/C=N/NC(C)=O)c1O | -27 | 120 | 0 | 93 | ? | · | ·
Nc1nccnc1C(=O)OCC(=O)Nc1cccc(S(=O)(=O)N2CCCCC2)c1 | · | · | 5 | 100 | i | 1.4 | -0.8
CC(C)(C)c1ccc(C(=O)/C(C#N)=C/c2cccs2)cc1 | · | · | · | 105 | i | 1.1 | ·
Nc1ccc2c(c1)COc1ccccc1O2 | 44 | 86 | -15 | 91 | i | 1 | -0.1
CC1CCN(CCOc2ccc(Cl)c(Cl)c2)CC1 | -15 | 82 | -1 | 107 | · | · | -0.8
CCN(CC)S(=O)(=O)c1ccc(-c2nnc(SCC(=O)N3CCOCC3)o2)cc1 | 36 | 82 | 2 | 106 | i | 1 | 0.2
CCc1nc(SCc2cc(Cl)ccc2OC)n[nH]1 | 18 | 62 | -10 | 100 | i | 0.79 | -0.8
COc1cccc2sc(NC(=O)c3ccc(S(=O)(=O)N4CCOCC4)cc3)nc12 | -11 | 108 | -1 | 103 | i | 0.73 | -3.0
COc1ccc(S(=O)(=O)N(CC(=O)O)Cc2ccccc2)cc1OC | · | · | -5 | 101 | i | 0.94 | 2.1
Cc1cccc(C)c1NC(=O)c1sccc1SCc1cccc(C(F)(F)F)c1 | -60 | 96 | -3 | 103 | i | 0.95 | 2.3

Results in HSV replic up primary fold and PKD1 kinase inh, for some of the entries so far:
SMILES	HSV replic up primary fold	PKD1 kinase inh
CCN(CC)S(=O)(=O)c1ccc(-c2nnc(SCC(=O)N3CCOCC3)o2)cc1	1	2
CCc1nc(SCc2cc(Cl)ccc2OC)n[nH]1	0.79	-10
COc1cccc2sc(NC(=O)c3ccc(S(=O)(=O)N4CCOCC4)cc3)nc12	0.73	-1
